# Mtb MbtI inh: MbtI salicylate synthase inhibition | P9WFX0 | purified MbtI enzyme, fluorescence intensity read-out | inhibition, %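 (about 17 µg/mL by stock and volumes)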 | hit rate 0.89% among 100,000;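 active = above 50% in both replicates, above 80% if mildly self-fluorescent; inactive = the rest, strongly fluorescent compounds included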;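 also: 0% = mean of negative and 100% = mean of positive controls; one replicate is shown; some compounds called inactive have numbers as strong as hits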
# Target sequence (P9WFX0 whole entry, looked up): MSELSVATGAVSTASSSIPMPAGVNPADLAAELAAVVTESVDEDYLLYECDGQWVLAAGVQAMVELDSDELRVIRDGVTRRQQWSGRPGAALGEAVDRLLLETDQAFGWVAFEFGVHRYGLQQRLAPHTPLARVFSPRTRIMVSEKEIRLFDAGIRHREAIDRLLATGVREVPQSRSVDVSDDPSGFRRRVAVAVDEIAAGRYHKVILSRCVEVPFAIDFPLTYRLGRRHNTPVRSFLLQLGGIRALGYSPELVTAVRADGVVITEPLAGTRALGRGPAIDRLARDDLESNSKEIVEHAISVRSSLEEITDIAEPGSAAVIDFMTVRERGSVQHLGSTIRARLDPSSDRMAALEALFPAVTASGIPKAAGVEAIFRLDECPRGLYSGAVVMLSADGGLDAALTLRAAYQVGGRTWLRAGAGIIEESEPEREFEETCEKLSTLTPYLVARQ
# Polio RdRp inh: poliovirus RNA polymerase inhibition. P03300. poliovirus polymerase elongation, fluorescence polarization; active compounds read low. % elongation, % (compound at 16.7 µg/mL). hit rate 0.66% among 150,000. AID 588519; in the data active = % elongation below about 90%; also: some results filed as inactive read as strong as hits
# Mtb MenB inh: blocks the Mycobacterium tuberculosis MenB enzyme; P9WNP5; MenB enzyme assay, absorbance read-out; some hits fall short of the stated cut; inhibition, %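 (about 12 µg/mL by stock and volumes)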; hit rate 0.43% among 100,000; AID 540299;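 active = mean of two replicates above 30%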;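 also: 0% = no compound and 100% = wells with inactive enzyme; the first replicate is given; strong numbers were not always called active; inactives centre near -10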
# Target sequence (P9WNP5 whole entry, looked up): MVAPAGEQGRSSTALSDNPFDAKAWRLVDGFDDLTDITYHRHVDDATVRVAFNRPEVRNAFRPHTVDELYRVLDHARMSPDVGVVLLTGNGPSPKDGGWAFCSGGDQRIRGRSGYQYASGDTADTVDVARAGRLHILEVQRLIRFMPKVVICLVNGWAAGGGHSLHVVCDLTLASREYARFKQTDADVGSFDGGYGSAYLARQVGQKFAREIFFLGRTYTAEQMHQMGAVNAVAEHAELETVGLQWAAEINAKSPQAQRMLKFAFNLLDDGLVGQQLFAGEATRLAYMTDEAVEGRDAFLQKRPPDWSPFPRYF
# Polio RdRp inh intensity: also measured in Polio RdRp inh; calls as there; % elongation; measured here: total intensity read-out; formula for this scale not given here;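 total fluorescence in place of polarization; lower means less elongation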
# Active calls of the source: *; i = inactive; · = not tested or not shown; & = joins results of further samples.
SMILES,Mtb MbtI inh,Polio RdRp inh,Polio RdRp inh intensity,Mtb MenB inh
Cc1cnc(C(=O)OCC(=O)N(C)c2ccccc2)cn1,-6,103,92,-27
CCC(=Nc1ccc(N)cc1)C1=C(O)CC(C)(C)CC1=O,1,101,106,·
CCCCNC(=S)N1CC2(C)CC1CC(C)(C)C2 (configuration not stated),-7,102,110,-8
Cc1nc2c(Cl)c(Cl)ccc2s1,4,99,103,7
O=C(OCC(=O)c1c[nH]c2ccccc12)c1cncc(Br)c1,-30,118,130,-15
COc1cc2[nH]c(=O)n(CCCC(=O)NC3CCCC3)c(=O)c2cc1OC,103,98,100,-3
COc1cccc(C2=CC(c3cccc(OC)c3)n3ncnc3N2)c1 (configuration not stated),-37,95,93,-29
Cn1ccnc1SCCS(=O)(=O)c1ccccc1,-7,105,110,-20
Cc1ccc(NC(=O)c2ccc3snnc3c2)cc1,3,104,104,-9
COc1ccc(N2CCN(C(=O)CCNS(=O)(=O)c3ccccc3)CC2)cc1,1,101,101,7
CN(C)c1ccc(P(=S)(N2CCCCC2)N2CCCCC2)cc1,9,98,105,-34
Cc1cccc(OCC(=O)OC2CCN(C)CC2)c1,-4,101,106,-50
CCCCc1n[nH]c2c1/C(=N\O)CC(c1ccccc1)C2 (configuration not stated),·,101,99,-7
Cc1ccc2nc(NC(=O)NC3CC(=O)N(c4ccc5c(c4)OCCO5)C3)sc2c1 (configuration not stated),-4,103,101,-38
CN1C(=O)N(C)C2(c3ccccc3)NN3C(=O)CSC3=NC12c1ccccc1 (configuration not stated),·,106,108,1
O=C(N/C=C/n1cnc2cc(C(F)(F)F)ccc21)c1cccs1,-8,103,107,·
CC1CC2CC(=O)CC(C1)C2 (configuration not stated),2,100,101,-3
CCOC(=O)C1=C(C)NC(=O)C(C(N)=O)C12CCCCC2 (configuration not stated),·,114,111,-16
C1CN2CN3CCN(CN1C3)C2,-10,103,106,-27
C=CCn1c(SCC(=O)NCc2ccc3c(c2)OCO3)nnc1-c1ccccc1F,-18,100,98,-5
CCCSc1ncc(Cl)c(C(=O)Nc2c(C)n(C)n(-c3ccccc3)c2=O)n1,6,100,101,14
CC(C)CNc1n[nH]c(=S)s1,96*,99,101,-33
CC1CCCCN1C(=O)CSc1nc(-c2ccccc2)cc(C(F)(F)F)n1 (configuration not stated),-5,101,97,-20
CCc1ccc(NC(=O)C2CCN(c3nnc(-n4cccc4)s3)CC2)cc1,0,103,106,-31
COc1cc(/C=N/n2c(=S)[nH]nc(C)c2=O)ccc1OCC(=O)N1CCOCC1,23,101,105,-35
CC(C)Nc1cnn(C23CC4CC(CC(C4)C2)C3)c(=O)c1Cl,-5,105,106,-8
CC(C)NC(=S)Nc1cccc(C(=O)O)c1,-6,103,99,-20
COC(=O)C1=CN(C2CC2)C=C(C(=O)OC)C1c1ccsc1,i,103,103,-96
O=S(=O)(Nc1ccccc1O)c1ccc2ccccc2c1,2,103,126,-54
CC(C)CSc1nc2sccc2c(=O)n1-c1ccccc1,1,105,99,-23
CN(Cc1nc(-c2ccccc2)no1)C(=O)CCN1C(=O)c2ccccc2C1=O,-18,104,103,-13
Cc1ccc(O)c(C(=O)c2cnc3nc4ccccc4n3c2)c1,36,110,120,-14
CS(=O)(=O)Cc1cccc(C(=O)NCc2ccco2)c1,0,101,98,2
Cc1ccc(S(=O)(=O)N2CCOCC2)cc1C(=O)OCC(=O)N(C)c1ccccc1,-12,104,104,1
Cc1nc(-c2nc(-c3c(C(=O)N/N=C/c4ccc(Cl)cc4)noc3C)cs2)cs1,2,104,106,-24
CCOc1ccc(S(=O)(=O)NCC2CCCO2)c2ccccc12 (configuration not stated),·,101,110,6

# Compounds above that have an aryl thioether with sulfur outside any ring (5):
SMILES,Mtb MbtI inh,Polio RdRp inh,Polio RdRp inh intensity,Mtb MenB inh
Cn1ccnc1SCCS(=O)(=O)c1ccccc1,-7,105,110,-20
C=CCn1c(SCC(=O)NCc2ccc3c(c2)OCO3)nnc1-c1ccccc1F,-18,100,98,-5
CCCSc1ncc(Cl)c(C(=O)Nc2c(C)n(C)n(-c3ccccc3)c2=O)n1,6,100,101,14
CC1CCCCN1C(=O)CSc1nc(-c2ccccc2)cc(C(F)(F)F)n1 (configuration not stated),-5,101,97,-20
CC(C)CSc1nc2sccc2c(=O)n1-c1ccccc1,1,105,99,-23

# The results go on:
SMILES,Mtb MbtI inh,Polio RdRp inh,Polio RdRp inh intensity,Mtb MenB inh
Nc1nc2ccc(CC(=O)O)cc2s1,·,95,93,-2
O=C(COC(=O)C1(c2ccccc2)CC1)N1CCN(c2ccc(F)cc2)CC1,-10,100,104,-6
Cc1ccc(C(=O)CSc2nnc(-c3cccc(C)c3)o2)cc1,-8,98,102,27
Clc1ccc2c(c1)CN(C1CCCCC1)CO2,-5,100,101,13
O=C1CCCC(O)=C1C(C1=C(O)CCCC1=O)c1ccccc1,·,102,101,-6
O=C(O)CC(NC(=O)Cc1ccccc1)c1ccccc1 (configuration not stated),-3,102,99,-5
O=C(CC1Oc2ccccc2NC1=O)NCc1cccnc1 (configuration not stated),0,102,100,4
CCOC(=O)c1csc(-c2cccs2)n1,1,90,98,-2
O=S(=O)(c1ccc2c3c(cccc13)CC2)N1CCSC1,58,99,68,3
COC(=O)C(C)Nc1n[nH]c(=S)[nH]c1=O (configuration not stated),14,99,102,9
CN(C)c1ccc(N2C(=O)CC(NNc3ccccc3)C2=O)cc1 (configuration not stated),19,103,108,-56
Cc1cc(C)n(-c2ccc(C(=O)OCC(=O)Nc3ccccc3)cc2)n1,3,101,101,-13
CC1(C)C(=O)NC(=O)N1C(=O)c1ccccc1,-12,106,102,-5
CCC(=O)n1nc(-c2ccccc2)nc1NCc1ccccc1,-13,102,102,-25
COc1ccc(C2N(C(=O)c3ccccc3)CCN2C(=O)c2ccc(C)cc2)cc1 (configuration not stated),0,101,97,-2
CCCCNC(=O)c1cc2c(C)cc(C)cc2[nH]1,-100,100,104,13
CCN1CCN(C(=O)c2cc[n+]([O-])cc2)CC1,-1,104,106,·
CN(C)c1ccc2c(C(F)(F)F)cc(-c3ccccc3)nc2c1,6,43,232,-16
CCC(=O)Nc1c(C(N)=O)oc2ccccc12,-42,98,105,-19
Cc1nc(-c2ccccc2OC(F)(F)F)[nH]c(=O)c1Cl,-11,104,109,-12
O=C(c1ccccc1)N(CCN1CCOCC1)C1(C(=O)Nc2ccccc2)CCCCC1,-3,101,98,·
CN(CC(=O)C(C#N)c1ccccc1)Cc1ccccc1 (configuration not stated),10,101,101,8
NC(=O)/C=C/C(=O)Nc1ccc2c(c1)OCO2,101*,101,103,0
CC(=O)Nc1ccc(NC(=O)c2ccccc2N(C)S(C)(=O)=O)cc1,-1,100,99,-2
O=S(=O)(/C=C/c1ccccc1)N1CCN(CC(O)COCc2ccccc2)CC1 (configuration not stated),-11,104,99,-1
CC(=O)Nc1ccc(NC2=CC(=O)CC3(CCCCC3)C2)cc1,12,106,103,10
CCCc1cc(=O)oc2cc(OCC(=O)N3CCc4ccccc43)ccc12,2,102,92,·
CC(NC(=O)CCCn1c(=O)oc2ccccc21)c1ccc(S(N)(=O)=O)cc1 (configuration not stated),4,103,97,-10
COc1ccc(CNC(=O)C2=Cc3ccccc3OC2)cc1,16,97,104,-5
O=C(C1CCN(c2nc3cccnc3s2)CC1)N1CCCCC1,95,101,98,-20
COc1ccc(C2=[N+]([O-])C(C)(C(=O)c3ccccc3)N(O)C2OC)cc1 (configuration not stated),12,101,107,-30
O=C(OCn1nnc2ccccc2c1=O)C12CC3CC(CC(O)(C3)C1)C2,2,100,105,12
C=CCNC1=C2C[C@@H](C)C[C@H](OC)[C@H](O)[C@@H](C)/C=C(\C)[C@H](OC(N)=O)[C@@H](OC)/C=C\C=C(/C)C(=O)NC(=CC1=O)C2=O,-21,100&99,103&102,-9
CCCC(=O)Nc1nc2ccc(S(C)(=O)=O)cc2s1,-17,104,103,-13
CC(C)(C)NS(=O)(=O)Nc1ccccc1,0,101,104,36*
CCCCN(C)S(=O)(=O)c1cc(Br)cc2c1N(C(=O)CC)CC2,-1,100,104,-62

# A few values from above.
# Reading for O=C(OCn1nnc2ccccc2c1=O)C12CC3CC(CC(O)(C3)C1)C2 in Polio RdRp inh intensity: 105
# Reading for CCCc1cc(=O)oc2cc(OCC(=O)N3CCc4ccccc43)ccc12 in Polio RdRp inh intensity: 92
# Reading for CC(=O)Nc1ccc(NC2=CC(=O)CC3(CCCCC3)C2)cc1 in Polio RdRp inh: 106

# Carrying on:
SMILES,Mtb MbtI inh,Polio RdRp inh,Polio RdRp inh intensity,Mtb MenB inh
COc1ccc(Cl)c(C(=O)OCC(=O)Nc2ccc(F)cc2)c1,·,103,112,-15
COc1cccc(CNn2cn[nH]c2=S)c1OCc1ccccc1,41,101,100,-14
CCCCC(=O)/C=C/n1c(=S)oc2ccccc21,-8,96,94,7
Cc1cc(I)ccc1NS(=O)(=O)c1cccs1,-9,101,101,·
O=C(COC(=O)c1ccc2c(c1)OCCO2)c1ccccc1,16,96,104,8
Cc1ccc(NC2OC(C(O)CO)C(O)C2O)cc1C (configuration not stated),-7,105,109,-98
O=C(CSc1nc2[nH]ncc2c(=O)[nH]1)N1CCCc2ccccc21,-5,100,103,-12
Cc1cc2ccccn2c1C(=O)c1ccc(S(=O)(=O)N(C)C)cc1,-6,100,101,·
Cn1nc(Oc2ccc(-c3ccccc3)cc2)c(=O)n(C)c1=O,-3,107,101,-9
COc1ccc(C(=O)NCc2cn3ccsc3n2)cc1OC,-4,105,107,-12
CC1=Nc2ccc(C)cc2/C1=C\c1c(N)n2nc(S(=O)(=O)CC(C)C)sc2nc1=O,-9,102,102,-169
O=S1(=O)CCC(NCC2CCCO2)C1 (configuration not stated),5,103,98,0

# Single records (already shown). Screens in order: Mtb MbtI inh | Polio RdRp inh | Polio RdRp inh intensity | Mtb MenB inh
# Record of Cc1ccc(NC2OC(C(O)CO)C(O)C2O)cc1C (configuration not stated) = -7 | 105 | 109 | -98
# Record of Cc1cc(I)ccc1NS(=O)(=O)c1cccs1 = -9 | 101 | 101 | ·

# Next entries follow.
SMILES,Mtb MbtI inh,Polio RdRp inh,Polio RdRp inh intensity,Mtb MenB inh
CCCN(CCC)C(=O)c1sc2nc(-c3ccccc3)cn2c1C,-3,104,101,-18
Cc1cnc(C)c(N(C)C)n1,70,57*,60*,31*
CC(C)C(NC(=O)Cc1ccccc1)C(C)C,-1,101,101,-5
Cc1ccc(-n2c(C)nc3sc4c(c3c2=O)CCC4)cc1,·,102,124,-3
Cc1ccc(C(=O)Nc2ccc(-c3cn4c(n3)SCC4)cc2)cc1C,2,108,121,6
CC(NC(=O)CCn1[nH]c(=O)ccc1=O)C12CC3CC(CC(C3)C1)C2 (configuration not stated),1,102,99,-29
Cc1ccc(-c2nnn(C3CCOC3=O)n2)cc1 (configuration not stated),18,101,91,-16
Cc1cc(C(C#N)c2nc3ccccc3o2)nc(N2CCOCC2)n1 (configuration not stated),-20,101,105,-33
Cc1ccc(CNC(=O)C(C)n2ncn3cccc3c2=O)cc1 (configuration not stated),-7,98,103,16
CCOC(=O)Nc1ccc2c(CN(C)Cc3ccc(F)cc3)cc(=O)oc2c1,14,103,109,-30
Cc1cc(C)c(NC(=O)COC(=O)C2CCCCC2)c(C)c1,0,104,112,5
COc1ccc(C(=O)NCCc2nnc3ccc(SCC(=O)Nc4ccc(C)cc4C)nn23)cc1,-10,102,105,7

# Already shown: 2 of the compounds above.
SMILES,Mtb MbtI inh,Polio RdRp inh,Polio RdRp inh intensity,Mtb MenB inh
Cc1cc(C)c(NC(=O)COC(=O)C2CCCCC2)c(C)c1,0,104,112,5
COc1ccc(C(=O)NCCc2nnc3ccc(SCC(=O)Nc4ccc(C)cc4C)nn23)cc1,-10,102,105,7

# Next part
SMILES,Mtb MbtI inh,Polio RdRp inh,Polio RdRp inh intensity,Mtb MenB inh
CN(C)/C=C1/N=C(c2ccccc2)OC1=O,11,100,96,4
Cc1ccc(CN(C)C(=O)c2ccc(Oc3ccccc3)cc2)o1,1,105,114,-40
CC(C(=O)NC1CCCCCC1)C1Sc2ccccc2N(Cc2ccc(F)cc2)C1=O (configuration not stated),7,104,98,-1
COc1cccc(N2C(=O)c3ccccc3C2C(=O)NC2CCCC2)c1 (configuration not stated),-16,100,103,-15
Nc1cc(C(=O)Nc2ccccc2F)ccc1N1CC2CC(C1)c1cccc(=O)n1C2 (configuration not stated),-32,101,104,-21
O=C(CCS(=O)(=O)c1nc(-c2ccc3c(c2)OCO3)cc(C(F)(F)F)n1)Nc1ccc(OC(F)(F)F)cc1,-2,103,103,-10
CN(Cc1cccc(F)c1)C(=O)C1CC(=O)N(Cc2ccco2)C1 (configuration not stated),5,105,106,10
O=C(CCc1ccccc1)NC1CCS(=O)(=O)C1 (configuration not stated),-2,·,·,-4
CCn1c(=NC(=O)CSCC(=O)NC2CCCCC2)sc2cc(C(=O)OC)ccc21,0,104,98,-20
N#CCSc1nnc(-c2ccc(Cl)cc2)n1Cc1ccco1,9,106,116,-2
CNC(=S)N1CCSC1=Nc1ccccc1C,12,101,113,12
CCCCC1CCC(C2CCC(C(=O)O)CC2)CC1 (configuration not stated),·,109,113,-32
O=S(=O)(Cc1ccc(C(F)(F)F)cc1)c1ccc(Cl)cc1,-4,99,105,-2
Cc1ccc(S(=O)(=O)N2CCCC2C(=O)NCc2ccccc2Cl)cc1 (configuration not stated),-5,101,102,·
CN1CCN(NS(=O)(=O)c2ccc(Br)s2)CC1,11,99,92,12
O=c1nc(SCCN2CCCCC2)nc2ccccn12,31,103,110,-12
CC(C)Cn1cc(I)c(=O)n(CC(C)C)c1=O,-6,100,102,6
Cc1c(N(C)C(=S)SCC(=O)O)c(=O)n(-c2ccccc2)n1C,14,102,102,-4
